# TRPML1 inh = qHTS for Inhibitors of the Human Mucolipin Transient Receptor Potential 1 (TRPML1); Mucolipin-1 (Homo sapiens), Q9GZU1; TRPML1-inducible cells, Ca2+ dye fluorescence, FDSS; hits give low values; inhibition of EC80 agonist-evoked calcium signal; activity change, negative = inhibition, % (test concentration not listed); 390,000 compounds, 0.02% hits; AID 624415, 2012; in the data active means activity change below about -50%; inconclusive means about -30% to -50%; inactive means above about -30%;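 note: stimulus is agonist 54-4 at its EC80 concentration; % is set by controls: 0 for no effect and ±100 for the full control effect; compound concentration not given in the record; the text of the record puts the active cut at -80%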
# Target sequence (Q9GZU1 whole entry, looked up): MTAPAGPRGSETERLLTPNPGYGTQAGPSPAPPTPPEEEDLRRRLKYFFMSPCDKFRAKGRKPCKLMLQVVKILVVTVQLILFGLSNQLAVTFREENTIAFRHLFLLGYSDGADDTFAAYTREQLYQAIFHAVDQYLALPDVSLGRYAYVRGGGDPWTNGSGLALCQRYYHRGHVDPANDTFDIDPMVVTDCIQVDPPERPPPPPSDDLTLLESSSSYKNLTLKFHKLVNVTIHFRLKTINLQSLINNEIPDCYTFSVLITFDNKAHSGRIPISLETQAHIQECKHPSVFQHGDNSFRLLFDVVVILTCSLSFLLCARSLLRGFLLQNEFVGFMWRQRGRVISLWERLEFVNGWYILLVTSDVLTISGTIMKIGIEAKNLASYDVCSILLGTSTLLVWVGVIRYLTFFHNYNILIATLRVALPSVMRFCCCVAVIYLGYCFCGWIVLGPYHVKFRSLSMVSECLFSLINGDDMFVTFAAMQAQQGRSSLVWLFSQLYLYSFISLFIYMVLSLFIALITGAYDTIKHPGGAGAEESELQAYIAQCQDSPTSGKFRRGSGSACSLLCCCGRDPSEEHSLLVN
#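 Calcium fluorescence in TRPML1-DL cells induced overnight with Tet: a 110 s read after compound pin addition, then a 110 s antagonist read after challenge with 54-4 at 4 uM final (EC80).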
# TRPML1 ag = qHTS for Agonists of the Human Mucolipin Transient Receptor Potential 1 (TRPML1) | Mucolipin-1 (Homo sapiens), Q9GZU1 | TRPML1-expressing cells, Ca2+ dye fluorescence, FDSS; host cell line not named in the record; reference of the full effect not given here | activation, % (no concentration beside the values) | 410,000 compounds, 0.12% hits | AID 624414, 2012; in the data active = activation above about 50%; inconclusive = about 30% to 50%; inactive = below about 30%; note: 0% is about no effect; the text of the record puts the active cut at 80%
#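 In this qHTS format, compounds were pin-transferred onto Ca8-dye-loaded TRPML1-DL cells induced with Tet overnight, and intracellular Ca2+ fluorescence was recorded kinetically for 110 s after a 10 s baseline. A subsequent 4uM final 54-4 (EC80) addition followed by a second 110 s read served as the antagonist phase.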
# CtBP-E1A inh = qHTS Assay for Inhibitors of the CtBP/E1A Interaction; CtBP / adenovirus E1A interaction (AlphaScreen); AlphaScreen GST-E1A/His-CtBP binding, 1536-well; hits give low values; control for the full effect not named in the record; activity change, % (no concentration beside the values); 340,000 compounds, 0.49% hits; in the data active means activity change below about -65%; inconclusive means about -30% to -65%; inactive means above about -30%; note: % is set by controls: 0 for no effect and ±100 for the full control effect
#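 GST-E1A and His-tagged CtBP (125 nM each as 5X stock) were preincubated with pin-transferred compound for 2 h at 37 °C in the dark, then glutathione donor and nickel acceptor beads were added for 1 h before AlphaScreen reading.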
# D2 PAM = Beta-Arrestin HTS for Positive Allosteric Modulators of the Human D2 Dopamine Receptor: Potentiators; 360,000 compounds, 0.23% hits; AID 624464, 2012; potentiation, % (concentration not given with the values); DiscoveRx D2 beta-arrestin cells, luminescence, 90 min; 100% = 57 uM dopamine signal; D(2) dopamine receptor (Homo sapiens), P14416; active = potentiation of 50% or more; inconclusive = 30% to 50%; inactive = 30% or less;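 note: tested on top of an EC20 dose of dopamine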
# Target sequence (P14416 whole entry, looked up): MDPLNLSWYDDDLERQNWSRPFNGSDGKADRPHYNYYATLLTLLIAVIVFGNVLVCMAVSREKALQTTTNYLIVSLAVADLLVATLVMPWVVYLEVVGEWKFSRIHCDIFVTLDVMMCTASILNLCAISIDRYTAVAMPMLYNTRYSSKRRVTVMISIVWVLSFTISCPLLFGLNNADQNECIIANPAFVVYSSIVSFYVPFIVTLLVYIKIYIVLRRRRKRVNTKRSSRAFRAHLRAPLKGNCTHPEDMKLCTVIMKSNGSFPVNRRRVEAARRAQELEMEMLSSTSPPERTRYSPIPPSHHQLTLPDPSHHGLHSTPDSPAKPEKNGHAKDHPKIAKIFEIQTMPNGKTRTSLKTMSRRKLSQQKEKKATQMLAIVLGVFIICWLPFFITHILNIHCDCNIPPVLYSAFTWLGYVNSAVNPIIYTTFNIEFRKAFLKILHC
#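 PathHunter D2 cells, attached overnight at 37 deg C, received compound in DMSO plus dopamine at EC20 (50 nM final) for 90 min at 37 deg C. Beta-arrestin recruitment was read as luminescence after 1 h with detection reagent at ambient temperature.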
# Six1-Eya2 inh = qHTS Assay for Inhibitors of the Six1/Eya2 Interaction; AlphaScreen GST-Six1/His-Eya2 binding, biochemical; hits give low values; control for the full effect not named in the record; activity change, % (no concentration beside the values); Homeobox protein SIX1 (Homo sapiens) + Protein phosphatase EYA2 (Homo sapiens), …; 360,000 compounds, 0.56% hits; in the data active = activity change below about -65%; inconclusive = about -30% to -65%; inactive = above about -30%; note: % is set by controls: 0 for no effect and ±100 for the full control effect
#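 Compounds are tested against tagged Six1 and Eya2 proteins bridged by glutathione donor and nickel acceptor beads; after a one-hour incubation at 37 °C without light, AlphaScreen emission is recorded.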
# TRPV1 PAM = HTS Assay for Compounds that Act as Potentiators of the Vanilloid Receptor 1 | AID 540277, 2011 | potentiation, % at 8.33 µM | TRPV1-expressing cells, Fluo-8 calcium influx, capsaicin EC20 potentiation; host cell line not named in the record; control for the full effect not named in the record | 320,000 compounds, 0.02% hits; active means potentiation above 80%; inconclusive means 30% to 80%; inactive means below 30%; note: 0% is about no effect
#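 Fluo-8 calcium influx in TRPV1-expressing cells, kinetic read (ex 480/em 520 nm). Compound added and read 3 min for agonist activity, followed by capsaicin at EC20 final and 2 min further read for enhancement.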
# * marks the source's active call; other numbers are inactive results; ? = inconclusive; / = not tested or not shown; & = joins results of further samples.
SMILES,TRPML1 inh,TRPML1 ag,CtBP-E1A inh,D2 PAM,Six1-Eya2 inh,TRPV1 PAM
CCN1CCN(Cc2ccc(NC(=O)c3cc(NC(=O)c4cc5cccc(OC)c5o4)cc(OC)c3)cc2C(F)(F)F)CC1,36&-10,-0.6&-0.2,-11,-4&-24,-8&-23,-6
COc1ccc(-n2c(Cc3cccn3C)nnc2SCC(=O)Nc2ccccc2)cc1,17,1.7,-10,0,-9,-12
C=CCNCc1cccn1-c1sc2c(c1C#N)CCCC2,26,1.4,-2,-12,-12,-10
CCCCN1C(=O)N(c2nnc(C(C)(C)C)s2)C(O)C1c1ccc(C)cc1 (centres undefined),9,-0.3,/,-23,-3,-9
O=C(Nc1nc(-c2cccs2)c(C(=O)C(F)(F)F)s1)c1ccccc1,33,-0.1,4,-1,2,-9
O=C(O)c1ccccc1-c1ccccc1C(=O)Nc1ccc2c(c1)C(O)c1ccccc1-2 (centres undefined),2,-0.5,3,-6,-7,/
O=C1CNC(=S)N1Cc1ccc(Cl)cc1,15,0.4,3,-15,1,-5
COc1cccc2c1cc1c(=O)n(CC(=O)N3CCC(C)CC3)nc(C)n12,4&-7,0.3&-0.6,/,12,3,-1
COc1ccccc1NC(=O)C(=O)Nc1ccccn1,-10,0.4,4,-6,7,2
O=C(C1CCC1)N1CCN(Cc2ccccc2)CC1,-18,-0.6,5,-5,1,-7
Cc1cc(-n2cnc3c(=O)[nH]cnc32)ccc1N,7,1.3,/,6,-8,4
O=C(NNS(=O)(=O)c1ccc(C(F)(F)F)cc1)c1cnn(-c2ccccc2)c1C(F)(F)F,7,0.8,/,6,7,26
Cc1ccc(-c2csc(NC(=S)NC(=O)c3cccs3)n2)cc1,-5,0.2,-17,-1,-5,-16
Cc1ccc(CNC(=O)CN2C(=O)COc3ccc(C)cc32)cc1,-8,-0.3,5,10,4,0
CCCc1cc(=O)oc2c3c(cc(OCC(=O)N[C@@H](C)C(=O)O)c12)OC(C)(C)CC3,6,-1.3,10,-8,-1,4

# Entries of single compounds, quoted from the list. Screens in order: TRPML1 inh | TRPML1 ag | CtBP-E1A inh | D2 PAM | Six1-Eya2 inh | TRPV1 PAM
# `O=C(O)c1ccccc1-c1ccccc1C(=O)Nc1ccc2c(c1)C(O)c1ccccc1-2` (centres undefined) across the screens: 2 | -0.5 | 3 | -6 | -7 | /
# `CCCCN1C(=O)N(c2nnc(C(C)(C)C)s2)C(O)C1c1ccc(C)cc1` (centres undefined) across the screens: 9 | -0.3 | / | -23 | -3 | -9

# Three entries from above, sorted by molar mass, rising:
SMILES,TRPML1 inh,TRPML1 ag,CtBP-E1A inh,D2 PAM,Six1-Eya2 inh,TRPV1 PAM
O=C1CNC(=S)N1Cc1ccc(Cl)cc1,15,0.4,3,-15,1,-5
COc1cccc2c1cc1c(=O)n(CC(=O)N3CCC(C)CC3)nc(C)n12,4&-7,0.3&-0.6,/,12,3,-1
O=C(O)c1ccccc1-c1ccccc1C(=O)Nc1ccc2c(c1)C(O)c1ccccc1-2 (centres undefined),2,-0.5,3,-6,-7,/

# (list continues)
SMILES,TRPML1 inh,TRPML1 ag,CtBP-E1A inh,D2 PAM,Six1-Eya2 inh,TRPV1 PAM
Cc1ccc(S(=O)(=O)N2CCN(C(=O)N(C)C)CC2)cc1,-6,1.0,-19,-5,2,9
Cn1cc(CN2CCN(Cc3ccc4c(c3)OCO4)CC2)c(-c2ccccc2F)n1,-1,0.5,/,-15,-3,11
COc1ccc(Cc2nnc(Nc3ccccc3)s2)cc1Br,23,1.3,/,-6,2,-16
CN1CCN(c2ccc(-c3cc(NC=O)c4ncc(-c5ccccc5)n4c3)cc2)CC1,/,1.4,?,-9,?,/
COc1cc(/C=C2/NC(=O)N(CC(=O)Nc3ccc(C)cc3)C2=O)ccc1Oc1ccc([N+](=O)[O-])cn1,10,2.8,/,-25,1,1
O=C(CNC(=O)c1ccc(Br)o1)NNC(=O)c1ccc(Br)cc1,5,-0.4,1,-2,19,8
CCN1C[C@@H]2[C@@H]3C(=O)N(Cc4ccccc4)C(=O)[C@@H]3[C@](Cc3ccccc3)(C1=O)N2C(=O)c1ccc(C(C)(C)C)cc1,5,2.0,8,-2,-9,/
CCCCn1nc2cc(C(=O)NCC34CC5CC(CC(C5)C3)C4)ccc2c1OC,65,2.0,3,1,5,4
COc1ccc(CNC(=O)CN(Cc2ccccc2OC)C(=O)c2csnn2)cc1,-5,-0.2,2,0,6,2
COc1ccc(CCNC(=O)COC(=O)c2cc(S(=O)(=O)N3CCCC3)ccc2O)cc1,4,2.2,2,-1,2,16
Cc1cc(Cl)ccc1OCCCC(=O)N/N=C/c1cccc([N+](=O)[O-])c1,-9,-0.1,3,-26,-7,-7
Cc1cccc(N)c1SC1CCCCC1O (centres undefined),-15,0.6,4,14,1,-3
CCCc1cc(N2CCN(C(=O)c3ccco3)CC2)n2c(nc3ccccc32)c1C#N,-5,0.0,-67*,7,?,-26
O=C(Nc1cccc(S(=O)(=O)C(F)F)c1)c1ccc(S(=O)(=O)N2CCCCC2)cc1,-1,4.5,-2,-12,-2,-2
CCc1nnc2n1N=C(c1cccc([N+](=O)[O-])c1)CS2,7,0.4,-22,-7,-3,-2
CC(C)c1nc2oc3c(NCc4cccnc4)ncnc3c2c2c1CCC2,-12,1.9,-12,-7,-1,2
O=S(=O)(c1ccccc1)c1nc(-c2ccco2)oc1NCc1ccccc1,35,4.5,3,-1,-10,-3
CC(Sc1ccc(Cl)cc1)C(=O)Nc1ccc(S(=O)(=O)N2CCOCC2)cc1 (centres undefined),4,5.3,6,3,-1,14
COc1ccc(/C=N/NC(=O)NC23CC4CC(CC(C4)C2)C3)c(OC)c1,60,3.1,-17,-14,-2,-4
COc1cc(/C=C/C(=O)OCC(=O)NCc2ccco2)ccc1O,0,-0.6,15,-14,-6,22
CCOC(=O)Cc1csc(NC(=O)CSc2nnc(-c3ccc(C)cc3)o2)n1,-7,0.5,3,-13,2,-3
COCCNC(=O)C(c1cccs1)N(C(=O)Cn1nnc2ccccc21)c1ccc(OC)cc1 (centres undefined),-14,-0.8,-2,-6,8,-5
Cc1cc(N2CCN(C)CC2)nc2ccc(NC(=O)c3ccccc3F)cc12,?,0.2&1.8,-1,-7,3,5
O=C(Nc1ccc2c(c1)OCO2)O[C@@H]1C[C@H]2CCCC(=O)N3CC[C@@H](C1)[C@@H]23,8,-0.3,-1,-8,-8,18
O=C(Nc1nnc([C@@H]2C[C@H](O)[C@@H](CO)O2)s1)Nc1ccccc1F,/,-0.6,1,8,8,/
CC(Sc1ccccc1)C(=O)NNC(=O)c1csc(N2CCOCC2)n1 (centres undefined),9,-0.2,9,8,4,-3
C=CC[C@H](CC(=O)N(CCO)Cc1ccccc1)C(=O)NCCOC(=O)[C@H](CC=C)CC(=O)OC(C)(C)C,-7,-1.0,8,/,3,/
COc1ccccc1N1CCN(CC(O)COc2ccc3c(C)cc(=O)oc3c2)CC1 (centres undefined),-15,4.1,-7,6,-7,0
CCC(C)C(NC(=O)[C@@H](NC(=O)c1ccccc1F)C(C)C)C(=O)OC (some centres undefined),0,-0.2,5,17,6,-15
O=C(CCS(=O)(=O)c1cccs1)Nc1ccc(C(=O)NC2CCCC2)cc1,-8,0.2,-5,-5,3,2
Nn1c(SCC(=O)Nc2ccccc2F)nnc1-c1cccs1,-12,-0.7,3,-3,0,14
CN(C)CCCOc1cccc(Cl)c1,5,-0.2,-1,-13,7,-11
CC1=NN(C(=O)Cn2ccc([N+](=O)[O-])n2)C(O)(C(F)(F)F)C1 (centres undefined),-1,-0.8,-15,-8,-3,-4
CC(C)c1ccccc1-n1c(SCC(=O)N2CCN(c3ccccc3)CC2)nnc1-c1cccnc1,0,-1.4,-6,-27,-6,-1
CCc1ccc2c(c1)c1nc(C)sc1n2CC,-18,2.5,-1,-12,-7,/
CCc1ccc(N=CC23c4ccccc4C(c4ccccc42)C2C(=O)N(c4ccc(OC)cc4)C(=O)C23)cc1 (centres undefined),6,0.4,-5,-18,-11,/
O=C(NCC(=O)N1CCC2(CC1)NCCc1[nH]cnc12)c1cccc(Cl)c1,-4,0.8,/,-4,-5,4
O=C1c2cc(O)c(O)cc2OC(c2ccc(O)c(O)c2)C1O (centres undefined),-2,0.7,-4,-1,-25,/
Cc1ccc(CC(=O)Nc2ccc(S(=O)(=O)Nc3nccc(C)n3)cc2)cc1,2,0.2,11,0,2,3
O=C(NCc1cccnc1)c1cc(S(=O)(=O)N2CCCCC2)ccc1Cl,-8,-1.2,2,-6,3,-6
CN(C)C(CNC(=O)c1cccc(C(F)(F)F)c1)c1ccco1 (centres undefined),21,1.1,-1,-6,3,3
CC1CN(C(=S)Nc2ccccc2)CC(C)O1 (centres undefined),/,/,/,1,3,-3
O=C(NCCN1CCOCC1)c1ccc2c(c1)N(Cc1cccc(F)c1)C(=O)c1ccccc1S2,4,2.5,2,-9,-8,-17
O=C(NC(=S)Nc1ccccc1N1CCCCC1)c1ccc(-c2cccc([N+](=O)[O-])c2)o1,14,-1.2,0,-7,2,-3
Cc1ccc(OC(=O)c2cccc(S(=O)(=O)N3CCCC3)c2)c(-n2nc3ccccc3n2)c1,89,-0.4,8,-4,-16,-4
Cc1ccc(NC(=O)Nc2ccc(Cl)cc2)c(Br)c1,-3,0.0,-2,-35,-7,-22
CCN(CC(=O)Nc1cc(Cl)ccc1C)C(=O)c1ccc(N2CCCC2=O)cc1,8,-0.2,4,-2,-2,-3
CN(C)C(=O)CSc1nnc(-c2ccc(S(=O)(=O)N3CCCC3)cc2)n1C,9,0.7,-23,0,-6,-12
O=C(O)CCc1nn2c3ccccc3n(CCN3CCCCC3)c2nc1=O,3,2.1,4,-4,1,-1
COc1ccc(N2CCN(c3nc4cc(C)ccc4cc3C=O)CC2)cc1,9,1.3,-11,1,-11,8
CCOc1ccc(NC(=O)C(C)Sc2nnc(C)n2C)cc1 (centres undefined),1,1.0,-1,-7,7,-3
O=C(NCC1CCCO1)c1csc(Nc2cccc3ccccc23)n1 (centres undefined),12,0.9,2,1,-8,1
COc1c(Cl)ccc(Cl)c1C(=O)NC(=O)N1CCOCC1,-9,-0.3,-2,2,3,-41
COc1ccccc1C(=O)NCCN1CCN(C(=O)c2ccccc2OC)CC1,39,0.2,0,-25,19,-6
N/C(Cc1cccc2ccccc12)=N\OC(=O)c1ccccc1F,-13,1.3,0,61*,19,5
CN(C(=O)COC(=O)C1COc2ccccc2O1)c1c(N)n(Cc2ccccc2)c(=O)[nH]c1=O (centres undefined),-14,0.6,-1,-2,-7,?
Cc1ccnc(NC(=O)CCS(=O)(=O)c2ccccc2)c1,25,0.6,-1,-2,1,-11
Cc1csc(NC(=O)CSc2nnc(-c3ccc(Cl)cc3)n2N)n1,13,2.0,2,-3,3,-1
Cc1ccc(S(=O)(=O)CC(=O)N2CCOCC2)cc1,-1,0.7,9,-4,3,-9
CCn1c(SCC(=O)N/N=C/c2cc(OC)c(OC)c(OC)c2)nc2ccccc21,-6,-1.0,?,-9,?,19

# Compounds were not picked by outcome; about 0.95% have a hit in one of these screens.
